High-throughput results (PubChem)
MT1-MMP act inh = inhibitors of human MT1-MMP activation; P50281; HT1080 RFP-PRO-GFP cells, GFP/RFP ratio fluorescence, overnight; percent of plate control window, DMSO zero; GFP/RFP ratio change, % at 20 µM; 360,000 tested, 0.061% active;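 active means GFP/RFP ratio change of at least 30% with cell ATP level not reduced by more than half and red fluorescence within 50% of control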; further: strong numbers were not always called active
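system = RFP-PRO-GFP reporter HT1080 cells | dosing = 20 µM single dose, 1% DMSO | timing = overnight cell settling, then overnight compound exposure, 37 °C, 5% CO2 | read-out basis = GFP/RFP fluorescence ratio | controls = DMSO and RFP-L50D-GFP cell wells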
eIF4H inh = inhibitors of RNA binding by human eIF4H. Q15056. eIF4H fluorescence polarization binding assay. inhibition, % at 35 µM. 290,000 tested, 0.94% active;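 active means 50% or more with normal probe brightness, or confirmed in later tests; about a fifth of its hits are not listed in these tables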;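 further: calls also rest on retests at 20 µM and on dose response follow-up; 0% = protein and probe with vehicle and 100% = probe without protein; strong numbers were not always called active; many hits fall short of the cut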
CSC inhib = blocks cancer stem cells; 300,000 tested, 1.1% active; cancer stem cell-like cells viability, luminescence; inhibition, % at 7.5 µM;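 active means mean at 75% or more and at least half the replicates too; tested in HMLE shEcad cells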;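 further: 0% = median of negative and 100% = median of positive control wells; the first replicate is given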
Env fusion inh = inhibitors of HIV Env-mediated cell fusion. HeLa-JRFL Env/CEM21 cell fusion, luciferase. AID 651610. 360,000 tested, 1.1% active. inhibition, % at 12.3 µM;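 active means mean replicate inhibition score of at least 50 and every replicate individually at or above 50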;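 further: 0% = plate neutral controls and 100% = maraviroc near 300 nM; one replicate is shown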
Rce1 inh = inhibitors of yeast Ras-converting enzyme; AID 2563; Q03530; calls only; yeast membranes, quenched prenylated peptide cleavage fluorescence; 290,000 tested, 0.27% active;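 active means fall in fluorescence gain of 50% or more versus controls, with final raw signal at or below 3038400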;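 further: plate controls were neutral control wells for no effect and wells lacking membranes for full effect; tested at 10 µM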
Target sequence (Q03530 whole entry, looked up): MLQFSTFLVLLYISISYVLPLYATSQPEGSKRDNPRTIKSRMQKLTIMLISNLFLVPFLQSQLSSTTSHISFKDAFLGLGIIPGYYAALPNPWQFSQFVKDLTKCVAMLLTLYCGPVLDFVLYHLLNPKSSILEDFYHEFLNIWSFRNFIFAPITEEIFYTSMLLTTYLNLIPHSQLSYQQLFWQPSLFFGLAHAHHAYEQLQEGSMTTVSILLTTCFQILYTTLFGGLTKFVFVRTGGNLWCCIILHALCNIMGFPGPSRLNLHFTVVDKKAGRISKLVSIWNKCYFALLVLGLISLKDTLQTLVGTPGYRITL
PABP FP inh = PABP-poly(A) binding inhibition; inhibition, % at 35 µM; P11940; PABP-poly(A) RNA binding, fluorescence polarization; 290,000 tested, 1% active; AID 2014;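 active means 50% or more with normal probe brightness, or confirmed in later tests; about a fifth of its hits are not listed in these tables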;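 further: calls also rest on retests at 20 µM and on dose response follow-up; controls were probe without protein and protein plus probe with vehicle; some compounds called inactive have numbers as strong as hits; many hits fall short of the cut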
Yeast UUG start = yeast start codon fidelity modulation; S. cerevisiae UUG-firefly luciferase reporter, luminescence/redox ratio; AID 602363; 350,000 tested, 0.13% active; activity score, % at 18.7 µM;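 active means replicate mean at a twofold rise or more, about +100% in these data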;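 further: firefly luciferase made from a UUG start codon reports start codon fidelity; reporter light over untreated wells divided by growth signal over untreated wells; some hits fall short of that in this replicate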
MT1-MMP act inh RFP = further read-out of MT1-MMP act inh, marked with its call; RFP signal change, %; measured here: RFP expression control read;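 0 = vehicle wells; hits needed this value within 50% of zero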
* = called active by the depositor. An excerpt. The share of hits here may be higher or lower than overall.

For CN1C[C@@H](CO)O[C@@H](n2cnc3c(N4CCN(CCO)CC4)ncnc32)C1 the results were MT1-MMP act inh 1.1, Env fusion inh -19.6, Yeast UUG start -2.8 and MT1-MMP act inh RFP 4.6.
Screening S=C(NC1CCCCC1)N1CCN(Cc2ccccc2)CC1 returned MT1-MMP act inh 3.3, eIF4H inh 1.1, CSC inhib -13.8, Env fusion inh 17.2, Rce1 inh inactive, PABP FP inh -0.1 and MT1-MMP act inh RFP 1.1.
N#Cc1ccc(-c2ccc(F)cc2)nc1Sc1ccc(F)cc1 was read as MT1-MMP act inh -5.8, eIF4H inh -13.4, CSC inhib 13.1, Env fusion inh -211.4, Rce1 inh inactive, PABP FP inh -15.1, Yeast UUG start -18.4 and MT1-MMP act inh RFP -4.0.
Screening CCSc1nnc(NC(=O)CCN2C(=O)C3CCCCC3C2=O)s1 (configuration not stated) returned MT1-MMP act inh 0.5, Env fusion inh -7.8, Yeast UUG start -23.4 and MT1-MMP act inh RFP 2.5.
O=C(NC(Cc1c[nH]c2ccccc12)C(=O)N1CCOCC1)c1cccs1 (configuration not stated) was read as MT1-MMP act inh -1.6, eIF4H inh 24.2, CSC inhib 0.1, Env fusion inh -12.7, PABP FP inh 11.8, Yeast UUG start -7.6 and MT1-MMP act inh RFP 0.4.
Screening CCN(CC)C(=O)Cn1cc(S(=O)(=O)CC(=O)Nc2ccc(C(N)=O)cc2)c2ccccc21 returned MT1-MMP act inh 1.8, eIF4H inh 3.5, CSC inhib -3.2, Env fusion inh 1.0, Rce1 inh inactive, PABP FP inh -7.8, Yeast UUG start 0.9 and MT1-MMP act inh RFP 0.8.
For CC(C)(CCc1ccccn1)C(=O)C(CCc1ccccn1)CCc1ccccn1 the results were MT1-MMP act inh -2.1, Env fusion inh -22.1, Yeast UUG start -7.7 and MT1-MMP act inh RFP 2.9.
Screening CN1CCCN(C(=O)c2cc3c(s2)CCCC3)CC1 returned MT1-MMP act inh -7.8, eIF4H inh -0.6, CSC inhib -8.5, Env fusion inh -44.8, Rce1 inh inactive, PABP FP inh 7.2, Yeast UUG start -11.3 and MT1-MMP act inh RFP -0.5.
`CCn1cc(C(=O)NCCC(=O)OC)c(=O)c2cc3c(cc21)OCO3` gave MT1-MMP act inh 1.8, eIF4H inh -0.3, CSC inhib -14.9, Env fusion inh 3.2, Rce1 inh inactive, PABP FP inh -1.1, Yeast UUG start 9.5 and MT1-MMP act inh RFP 0.0.
CC(C)N1CCC(NC(=O)Nc2ccccc2)CC1 was read as MT1-MMP act inh -0.2, eIF4H inh -5.4, Env fusion inh 18.6, Rce1 inh inactive, PABP FP inh -2.0 and MT1-MMP act inh RFP 1.0.
Screening Cc1cccc(C)c1OCC(=O)Nc1cccc(S(=O)(=O)N2CCCCCC2)c1 returned MT1-MMP act inh 1.6, Env fusion inh 31.2, Yeast UUG start -3.8 and MT1-MMP act inh RFP -2.5.
`COc1ccc(S(=O)(=O)N2CCN(C(=O)[C@@H]3CCC(=O)N3C3OC(=O)c4ccccc43)CC2)cc1` (some centres not stated) gave MT1-MMP act inh 1.6, eIF4H inh -6.2, CSC inhib -18.4, Env fusion inh -22.8, Rce1 inh inactive, PABP FP inh -12.8, Yeast UUG start -17.8 and MT1-MMP act inh RFP 3.2.
For COc1ccccc1OCc1nnc(SCC(=O)NCc2ccco2)n1Cc1ccco1 the results were MT1-MMP act inh -10.5, eIF4H inh 45.3, CSC inhib -7.5, Env fusion inh 4.1, Rce1 inh inactive, PABP FP inh 30.4, Yeast UUG start -10.7 and MT1-MMP act inh RFP 4.0.
`COc1ccc(CC(NC(C)=O)C(=O)NC2CCN(c3c4c(nc5ncnn35)CCC4)CC2)cc1` (configuration not stated) gave MT1-MMP act inh 3.0, eIF4H inh -7.2, CSC inhib 19.0, Rce1 inh inactive, PABP FP inh 3.3, Yeast UUG start -11.5 and MT1-MMP act inh RFP 2.8.
For COc1ccc(CN2C(=O)c3ccccc3C2=O)cc1C(=O)Nc1ccc(C)cc1C the results were MT1-MMP act inh 2.9, eIF4H inh -7.0, CSC inhib -13.1, Rce1 inh inactive, PABP FP inh -11.5, Yeast UUG start 5.8 and MT1-MMP act inh RFP 7.5.
Cc1nnc(N(C)C(=O)c2ccncc2)s1 was read as MT1-MMP act inh -3.9, eIF4H inh 3.9, Env fusion inh 2.8, Rce1 inh inactive, PABP FP inh -9.3, Yeast UUG start -5.6 and MT1-MMP act inh RFP 1.5.
`Cc1[nH]c2ccccc2c1C(=O)CNc1nccs1` gave MT1-MMP act inh 0.2, eIF4H inh -4.1, CSC inhib -2.6, Env fusion inh -1.6, Rce1 inh inactive, PABP FP inh -6.3, Yeast UUG start 4.9 and MT1-MMP act inh RFP 5.4.
For CC(C)(Oc1ccc(Br)cc1)C(=O)N1CCc2ccccc21 the results were MT1-MMP act inh -3.1, eIF4H inh -5.7, CSC inhib 6.5, Rce1 inh inactive, PABP FP inh 3.5, Yeast UUG start -17.8 and MT1-MMP act inh RFP 2.1.
Screening COc1cccc(/C=C2\C=C(c3ccc(C)cc3)OC2=O)c1OC(C)=O returned MT1-MMP act inh -2.9, eIF4H inh 44.5, CSC inhib -0.6, Env fusion inh -18.4, Rce1 inh inactive, PABP FP inh 6.7, Yeast UUG start -15.8 and MT1-MMP act inh RFP -0.2.
Screening Cc1ccc(CC2CC(=O)N(c3ccc(C)cc3)C2=O)cc1 (configuration not stated) returned MT1-MMP act inh -0.8, eIF4H inh 12.3, CSC inhib -9.7, Env fusion inh 17.8, Rce1 inh inactive, PABP FP inh 2.3, Yeast UUG start -17.3 and MT1-MMP act inh RFP -1.4.
CCN(C(=O)CSc1nnc(COc2ccccc2F)n1N)C1CCS(=O)(=O)C1 (configuration not stated) was read as MT1-MMP act inh 0.5, eIF4H inh 1.5, CSC inhib 9.3, Rce1 inh inactive, PABP FP inh 9.3, Yeast UUG start -12.0 and MT1-MMP act inh RFP 4.4.
For Cc1csc(NC(=O)CSc2nnc(C)c(=O)n2N)n1 the results were MT1-MMP act inh -2.5, eIF4H inh 0.1, CSC inhib -8.8, Env fusion inh -6.4, Rce1 inh inactive, PABP FP inh 0.2, Yeast UUG start -8.6 and MT1-MMP act inh RFP 2.3.
`O=C(CCc1nc(-c2ccc(F)cc2)no1)Nc1cccc(C(=O)NC2CC2)c1` gave MT1-MMP act inh 0.7, CSC inhib 18.1, Env fusion inh -5.9, Yeast UUG start -23.7 and MT1-MMP act inh RFP -6.8.
Screening c1cc2c(cc1Nc1nc(-c3ccc4c(c3)OCO4)cs1)OCCO2 returned MT1-MMP act inh -6.7, eIF4H inh -4.4, CSC inhib 2.4, Env fusion inh -66.8, Rce1 inh inactive, PABP FP inh 10.8, Yeast UUG start -23.6 and MT1-MMP act inh RFP -3.7.
CC(=O)c1ccc(N(C(=O)CNC(=O)c2ccco2)C(C(=O)NC2CCCC2)c2ccco2)cc1 (configuration not stated) was read as MT1-MMP act inh -1.6, eIF4H inh -5.2, CSC inhib -7.7, Env fusion inh -16.5, Rce1 inh inactive, PABP FP inh 10.2, Yeast UUG start -19.4 and MT1-MMP act inh RFP -2.1.
Screening Cc1nc(NC(=O)c2cc(-n3cnnc3)ccc2Cl)ccc1Br returned MT1-MMP act inh 1.3, eIF4H inh -4.1, CSC inhib -0.4, Env fusion inh -116.1, Rce1 inh inactive, PABP FP inh -23.9, Yeast UUG start -0.6 and MT1-MMP act inh RFP 0.9.
COc1ccc2nc(C)cc(N3CCN(S(=O)(=O)c4ccccc4F)CC3)c2c1 was read as MT1-MMP act inh -1.4, CSC inhib -9.5, Env fusion inh -1.3, Yeast UUG start -36.9 and MT1-MMP act inh RFP 0.5.
CS(=O)(=O)N(C(=O)NC(=O)NC1CCS(=O)(=O)C1)C1CCCCC1 (configuration not stated) was read as MT1-MMP act inh 1.1, eIF4H inh -14.6, CSC inhib -4.6, Rce1 inh inactive, PABP FP inh 2.7, Yeast UUG start -19.8 and MT1-MMP act inh RFP 2.7.
Screening O=C(CCl)Nc1sccc1C(=O)c1ccccc1 returned MT1-MMP act inh -2.5, CSC inhib 11.7, Env fusion inh -19.0, Rce1 inh inactive, Yeast UUG start -16.7 and MT1-MMP act inh RFP -3.1.
`CN(c1ccc(C(=O)Nc2ccc(S(=O)(=O)N3CCCC3)cc2)cc1)S(C)(=O)=O` gave MT1-MMP act inh -3.9, eIF4H inh 4.2, CSC inhib -15.6, Env fusion inh 25.5, Rce1 inh inactive, PABP FP inh 19.0 and MT1-MMP act inh RFP -22.7.
Screening CCC(C)C(NC(=O)C1CCC(C)CC1)C(=O)Nc1cc(OC)ccc1OC (configuration not stated) returned MT1-MMP act inh -21.4, eIF4H inh 2.8, CSC inhib -3.9, Env fusion inh -130.3, Rce1 inh inactive, PABP FP inh -10.3, Yeast UUG start 6.3 and MT1-MMP act inh RFP -17.9.
`CC1(c2cccs2)CC(c2cccs2)=C(C#N)C(=O)N1` (configuration not stated) gave MT1-MMP act inh -5.7, eIF4H inh -12.5, CSC inhib 8.9, Env fusion inh -29.2, Rce1 inh inactive, PABP FP inh 0.4 and MT1-MMP act inh RFP -0.3.
Screening Cc1c(C(N)=O)c(N)c(C(=O)c2ccccc2)n1-c1ccccc1 returned MT1-MMP act inh 1.8, eIF4H inh -9.1, CSC inhib -5.1, Env fusion inh -42.8, Rce1 inh inactive, PABP FP inh -9.9, Yeast UUG start -21.3 and MT1-MMP act inh RFP 3.1.
Cn1c(CN2CCCC(C(=O)c3ccc4c(c3)OCO4)C2)nc2ccccc21 (configuration not stated) was read as MT1-MMP act inh -5.0, eIF4H inh -2.8, CSC inhib -3.2, Env fusion inh 5.0, Rce1 inh inactive, PABP FP inh -7.2, Yeast UUG start -11.7 and MT1-MMP act inh RFP -1.7.
CCOCCCNC(=O)C1(O)c2ccccc2NC(=O)N1c1ccc(Cl)cc1 (configuration not stated) was read as MT1-MMP act inh -2.2, eIF4H inh 0.4, CSC inhib 4.3, Env fusion inh -2.0, Rce1 inh inactive, PABP FP inh 1.4, Yeast UUG start -11.1 and MT1-MMP act inh RFP -0.4.
Screening C/C(=N\NC(=O)CSc1nnc(C)s1)c1ccc(O)cc1 returned MT1-MMP act inh 3.9, eIF4H inh -0.3, CSC inhib -13.1, Env fusion inh 4.5, Rce1 inh inactive, PABP FP inh -4.1 and MT1-MMP act inh RFP 3.1.
CCCCNC(=S)N(C)/N=C/c1ccccc1F was read as MT1-MMP act inh -0.9, eIF4H inh 9.0, CSC inhib 4.9, Env fusion inh -6.2, Rce1 inh inactive, PABP FP inh -9.3 and MT1-MMP act inh RFP -2.3.
For CC1Cc2ccccc2N1C(=O)COC(=O)c1ccccc1NCCO (configuration not stated) the results were MT1-MMP act inh 3.8, CSC inhib 13.3, Env fusion inh 4.0, Rce1 inh inactive, Yeast UUG start -4.3 and MT1-MMP act inh RFP -2.3.
Screening COc1ccc(/C=C(/NC(=O)c2ccccc2)C(=O)NCc2ccncc2)cc1 returned MT1-MMP act inh -0.7, eIF4H inh 4.3, CSC inhib 2.4, Env fusion inh 0.9, Rce1 inh inactive, PABP FP inh 13.1, Yeast UUG start -12.9 and MT1-MMP act inh RFP 0.1.
CCC(Oc1ccccc1)C(=O)NC1CCSC1=O (configuration not stated) was read as MT1-MMP act inh 0.8, eIF4H inh -11.4, CSC inhib -8.6, Env fusion inh -1.4, Rce1 inh inactive, PABP FP inh -7.2 and MT1-MMP act inh RFP -3.0.
`CCN(C(=O)CSc1ncnc2sccc12)c1c(N)n(Cc2ccccc2)c(=O)[nH]c1=O` gave MT1-MMP act inh -3.7, CSC inhib -3.5, Yeast UUG start -4.9 and MT1-MMP act inh RFP 4.4.
COc1cccc(NC(=O)CCS(=O)(=O)c2ccc(Br)cc2)c1 was read as MT1-MMP act inh -0.5, eIF4H inh -4.9, CSC inhib -16.7, Env fusion inh -25.8, Rce1 inh inactive, PABP FP inh 6.8, Yeast UUG start -2.7 and MT1-MMP act inh RFP 3.7.
